Assay outcomes as filed in PubChem.
RecA splice inh = Mtb RecA intein splicing inhibitors, primary screen, biochemical, fluorescence, HTS | Protein RecA (Mycobacterium tuberculosis (strain ATCC 25618 / H37Rv)), P9WHJ3 | cell-free RecA intein splicing | inhibition, %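 (about 9 µM by stock and volumes)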 | 290,000 tested, 0.75% active | AID 2221, 2009; in the data active means inhibition above about 30%; inconclusive means no clear call, values can overlap the other calls;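 further: 0% = vehicle wells and 100% = reference inhibitor control wells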
Target sequence (P9WHJ3 whole entry, looked up, canonical isoform): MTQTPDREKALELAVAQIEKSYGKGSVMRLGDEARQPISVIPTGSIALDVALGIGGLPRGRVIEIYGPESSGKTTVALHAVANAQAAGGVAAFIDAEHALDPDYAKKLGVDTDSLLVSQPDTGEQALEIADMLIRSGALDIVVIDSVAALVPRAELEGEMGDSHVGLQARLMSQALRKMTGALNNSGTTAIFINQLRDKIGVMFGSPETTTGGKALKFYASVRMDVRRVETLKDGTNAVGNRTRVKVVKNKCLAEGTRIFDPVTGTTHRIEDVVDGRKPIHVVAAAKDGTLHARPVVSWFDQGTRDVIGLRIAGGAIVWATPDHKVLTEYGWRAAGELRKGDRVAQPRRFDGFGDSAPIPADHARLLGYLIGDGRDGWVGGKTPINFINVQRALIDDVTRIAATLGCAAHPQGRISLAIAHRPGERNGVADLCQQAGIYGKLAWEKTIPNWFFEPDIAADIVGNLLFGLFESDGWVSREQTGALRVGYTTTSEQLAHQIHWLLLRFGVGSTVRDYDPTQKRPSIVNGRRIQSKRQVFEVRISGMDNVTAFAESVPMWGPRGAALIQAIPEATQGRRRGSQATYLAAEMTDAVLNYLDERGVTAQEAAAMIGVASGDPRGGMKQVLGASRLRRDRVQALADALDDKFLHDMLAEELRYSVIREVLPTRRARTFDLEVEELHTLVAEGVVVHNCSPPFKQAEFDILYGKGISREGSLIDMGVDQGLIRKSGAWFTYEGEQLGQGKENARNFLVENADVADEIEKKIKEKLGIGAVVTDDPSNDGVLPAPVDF
Mtb betalactam = beta-lactam sensitization of Mtb H37Rv, H37Rv; M. tuberculosis H37Rv growth with meropenem, percent inhibition; hits of this screen are not shown here; inhibition, % at 25 µM; 330,000 tested, 0.27% active; AID 434955, 2010;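 active means about 74% or more and at least 40 points above the plate without the antibiotic, then above 30% in a dose series; inconclusive means first-round hits that could not be retested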;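 further: growth measured after seven days incubation then overnight dye step; 0% = bacteria only wells and 100% = bacteria with antibiotic; twin plates without the antibiotic show which effects depend on it; some results filed as inactive read as strong as hits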
YopH PTP inh = YopH tyrosine phosphatase inhibitors, primary screen, biochemical, fluorescence Ex485/Em525. inhibition, %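 (about 10 µM by stock and volumes)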. 140,000 tested, 0.16% active;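 active means inhibition of 50% or more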;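 further: controls were vehicle for no effect and minimum signal wells for full effect; inactives centre near -20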
Mtb H37Rv = M. tuberculosis H37Rv growth inhibitors, H37Rv strain (AID 1626); 220,000 tested, 0.95% active; M. tuberculosis H37Rv growth inhibition; higher % means a stronger effect; inhibition, % at 10 µM; hits with a dose series show IC50 in µM;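 active means confirmed in a dose series; inconclusive means inhibition above 80% but not taken into the dose series; inactive means below 80% or under 30% at every dose of the series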;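 further: bacteria incubated seven days before Alamar blue readout; 0% = bacteria only wells and 100% = bacteria with antibiotic wells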
Arbovirus anti = antivirals against arbovirus infection, primary screen, cell-based, full library, 10K replicate subset; inhibition, % at 10 µM; AID 1251, 2008; 200,000 tested, 0.37% active; arbovirus infection cell-based antiviral screen;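 active means inhibition from about 30%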;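 further: bluetongue infection of BSR cells; cell survival read as ATP light after 72 h; 0% = infected wells without compound and 100% = uninfected wells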
Arbovirus anti repeat = second read-out of Arbovirus anti, no call of its own (marks repeat the call); inhibition, %; measured here: 10K subset replicate screen; many hits read low in the repeat;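 first of two repeat runs on a subset; 0% = infected and 100% = uninfected wells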
Active calls of the source: *; ? = inconclusive; . = no result given.

A first look, 3 compounds:
SMILES	RecA splice inh	Mtb betalactam	YopH PTP inh	Mtb H37Rv	Arbovirus anti	others
CCc1ccc(OCC(=O)NNC(=O)c2cnccn2)c(Br)c1	7.8	98	.	.	.
CCOC(=O)c1cn(CC(=O)Nc2ccc(C(C)C)cc2)nn1	0.2	-2	-14	-6%	6
O=C1CC(C(=O)Nc2ccc(F)cc2)n2cnnc2N1 (stereo unspecified)	3.0	-9	.	3%	5

Main list, from the first entry:
SMILES	RecA splice inh	Mtb betalactam	YopH PTP inh	Mtb H37Rv	Arbovirus anti	others
CCc1ccc(OCC(=O)NNC(=O)c2cnccn2)c(Br)c1	7.8	98	.	.	.
CCOC(=O)c1cn(CC(=O)Nc2ccc(C(C)C)cc2)nn1	0.2	-2	-14	-6%	6
O=C1CC(C(=O)Nc2ccc(F)cc2)n2cnnc2N1 (stereo unspecified)	3.0	-9	.	3%	5
COc1ccc(C2=CC(c3ccc(C)cc3)n3nnnc3N2)cc1 (stereo unspecified)	-90	15	4	-2%	38*
CCCC1=NN(C(=O)Cc2ccc(OC)c(OC)c2)C(O)(C(F)(F)F)C1 (stereo unspecified)	1.1	-1	.	8%	.
N/C(=N\OC(=O)c1ccccc1Cl)c1ccccn1	-0.9	-3	13	2%	1
S=C(c1ccc(N2CCCC2)cc1)N1CCCCC1	.	11	-16	9%	-7
O=C(c1ccccc1)C1CCc2occc2C1=O (stereo unspecified)	-1.7	0	-7	2%	-1
Cc1ccc(-c2cc(C(=O)NCCCn3ccnc3)c3ccccc3n2)s1	-37	8	-34	10%	-27
C[C@H](NC(=O)OCc1ccccc1)c1nnc([C@H](Cc2ccccc2)NC(=O)OC(C)(C)C)o1	-1.2	-3	.	-1%	.
COc1cccc(N2CCN(C(=O)Nc3ccc4c(c3)NC(=O)CO4)CC2)c1	2.0	-3	-29	-6%	1
O=C(NC1=NCCS1)c1ccccc1	2.1	-2	.	.	.
COc1ccc(OCCNS(=O)(=O)c2ccccc2)cc1	-0.3	-2	-39	3%	-4	Arbovirus anti repeat=3
COC(=O)NCc1ccc2c(c1)OCO2	0.1	0	-27	-6%	0
CCc1ccccc1NNC(=O)c1snnc1C	3.5	0	.	-4%	.
Cc1cc(=O)oc2c3c(cc(OCC(=O)N[C@H](C(=O)O)c4ccccc4)c12)OC(C)(C)CC3	1.6	-5	.	.	.
Cc1ccc(C)c(NC(=O)NNS(=O)(=O)c2ccc(C)c(C)c2)c1	1.4	-7	.	.	.
CCOc1ccc2nc(NC(=O)c3c([N+](=O)[O-])cnn3CC)sc2c1	2.5	2	-29	-4%	0
COc1ccc(Cl)cc1C(=O)NCC#N	2.0	-1	-30	-3%	5
O=c1cc(CO)oc(CN2CCN(c3cccc(C(F)(F)F)c3)CC2)c1O	-0.9	-2	-8	-10%	-25
COc1ccc(C2(C(=O)Nc3ccc(C)c(C)c3)CCOCC2)cc1	1.9	-1	.	4%	0
Cc1cc(C)c2c(c1)/C(=N/NC(=S)Nc1ccc(F)cc1)CCC2	-0.7	-3	-6	-4%	-10
Cc1ccc(C)c(S(=O)(=O)N2CCCC2CNC(=O)c2ccc([N+](=O)[O-])cc2)c1 (stereo unspecified)	1.6	-5	.	.	.
CC(=O)N1c2ccc(S(=O)(=O)N3CCOCC3)cc2CC1C (stereo unspecified)	-0.9	-10	.	.	.

Arranged by length of the SMILES (largest number first): some entries from above
SMILES	RecA splice inh	Mtb betalactam	YopH PTP inh	Mtb H37Rv	Arbovirus anti	others
CCOc1ccc2nc(NC(=O)c3c([N+](=O)[O-])cnn3CC)sc2c1	2.5	2	-29	-4%	0
O=c1cc(CO)oc(CN2CCN(c3cccc(C(F)(F)F)c3)CC2)c1O	-0.9	-2	-8	-10%	-25
COc1ccc(C2(C(=O)Nc3ccc(C)c(C)c3)CCOCC2)cc1	1.9	-1	.	4%	0
CC(=O)N1c2ccc(S(=O)(=O)N3CCOCC3)cc2CC1C (stereo unspecified)	-0.9	-10	.	.	.
CCc1ccccc1NNC(=O)c1snnc1C	3.5	0	.	-4%	.
COc1ccc(Cl)cc1C(=O)NCC#N	2.0	-1	-30	-3%	5

Additional structures follow.
SMILES	RecA splice inh	Mtb betalactam	YopH PTP inh	Mtb H37Rv	Arbovirus anti	others
Cc1cc(OCC(=O)OCC(=O)N(C)c2c(N)n(Cc3ccccc3)c(=O)[nH]c2=O)ccc1Cl	-0.9	7	.	.	.
COc1ccccc1N(O)C1CC(=O)N(c2ccc(Br)cc2)C1=O (stereo unspecified)	-6.4	96	-8	9%	-7
CCCCc1ccc(NS(=O)(=O)N(C)C)cc1	4.6	-3	-23	2%	-2
CC(C)CC(=O)N1CCC(N(CCc2ccccc2)Cc2ccccc2)CC1	3.7	-7	.	.	.
O=C1[C@@H]2Cc3c([nH]c4ccccc34)C(c3ccccc3)N2C(=O)CN1C1CC1 (stereo partly specified)	-7.3	1	.	.	.
O=C1CN(C(=O)COC(=O)c2ccccc2NC(=O)c2ccco2)c2ccccc2N1	-3.7	2	-5	-5%	-4
CC1(C)CC(=O)C2=C(C1)N(c1ccc(F)cc1)C(=O)C2(NC(=O)c1ccccc1)C(F)(F)F (stereo unspecified)	-3.7	9	-43	3%	-3
CC(=O)N(C(C)=O)c1nc(-c2ccccc2)cn1/N=C/c1ccccc1	3.3	-7	.	-6%	.
COc1ccc(NC(=O)Cn2nnc(C(=O)NCc3ccc4c(c3)OCO4)c2N)cc1	-1.8	1	.	-3%	1
COc1ccc(C(C(=O)NC(C)(C)C)N(C(=O)CNC(=O)c2cccs2)c2ccc(C(C)C)cc2)cc1OC (stereo unspecified)	.	4	1	-4%	-15
Cc1cc(C)cc(NC(=O)COC(=O)c2cc(=O)[nH]c(=O)[nH]2)c1	-0.8	1	.	2%	4
O=c1cc(CSc2nnc(COc3ccccc3)o2)c2ccccc2[nH]1	0.9	-4	-60	0%	1
Cc1ccc(NC(=O)C2CCN(S(=O)(=O)c3ccc4c(c3)CCCC(=O)N4)CC2)cc1N(C)C	-0.7	-7	.	.	.
Cc1sc(N(C(=O)CCc2ccccc2)c2ccc(C(=O)O)cc2)nc1-c1ccccc1	-0.8	5	.	1%	-9
Cc1ccc(C)n1-n1c(C)nc2scc(-c3ccccc3)c2c1=O	6.1	14	-17	-4%	-22
Cc1cccc(N/C(N)=N/c2nc(C)c(Cc3ccccc3)c(=O)[nH]2)c1	-1.6	1	.	0%	-5
NC(=O)C1CCN(C(=O)CN2CCCc3ccccc32)CC1	-6.3	-1	19	1%	5
COc1ccc(OC)c(C2/C(=C(/O)c3ccccc3)C(=O)C(=O)N2Cc2ccco2)c1 (stereo unspecified)	1.3	-2	-17	4%	3
O=C(Nc1ccnn1C1CCN(Cc2cc(Cl)ccc2O)CC1)c1cccnc1	5.5	-2	.	.	.
O=C(c1cc(C(=O)N2CCOCC2)c2nc3ccccc3n2c1)c1cc(Cl)cc(Cl)c1O	-1.4	55	.	4%	.
CCOC(=O)N1CCC(N2CCCC(C(=O)c3cccc(OC)c3)C2)CC1 (stereo unspecified)	0.3	-9	.	0%	.
Cc1nnc2n(C)c(=O)c3c4c(sc3n12)COC(C)(C)C4	-1.6	-10	.	.	.
COc1ccc(/C=C/c2c([N+](=O)[O-])c(=O)n(C)c(=O)n2C)c(OC)c1	2.3	-3	.	7%	-5
CC(C)C(=O)Nc1ncc(Cc2ccccc2Cl)s1	-0.7	9	.	0%	-1
COc1ccc(-c2c(=O)n(OC)c3ccccc3[n+]2[O-])cc1OC	42*	-1	.	.	.
CCCC(C)NC(=O)CN(c1ccc2c(c1)OCCO2)S(=O)(=O)c1ccccc1 (stereo unspecified)	-1.9	6	.	.	.
CC(NC(=O)CCOc1ccccc1)c1ccccc1 (stereo unspecified)	6.0	-3	-3	1%	0
Cc1ccc(C(O)c2cccnc2)o1 (stereo unspecified)	-2.8	11	-25	-10%	11
COc1ccc(Cl)cc1-n1c(C)ccc1C	3.8	2	-17	-9%	-6
COc1ccccc1NC(=O)CSc1nnc(-c2ccco2)n1Cc1ccco1	2.2	-24	-25	0%	7	Arbovirus anti repeat=0
CC(C)(O)C#Cc1ccc(C(=O)N2CCN(c3ccccc3)CC2)cc1	-0.3	3	-21	-4%	6
COc1ccc(C(=O)CN(C(=O)c2ccc(Cl)cc2)N2C(=O)C3CCCCC3C2=O)cc1 (stereo unspecified)	1.5	2	0	-4%	-1
Cc1cc(=O)[nH]c(-c2ccc(C(F)(F)F)cc2)n1	0.8	-1	.	-7%	.
Cc1cccc(OCC(=O)NCCNC(=O)c2cnccn2)c1	2.4	2	.	.	.
O=C(NCC1CCCO1)C1CCCN1C(=O)Nc1ccccc1[N+](=O)[O-] (stereo unspecified)	0.5	-3	.	.	.
CCn1c(SCc2ccc(C)cc2)nnc1-c1nn(-c2ccccc2)ccc1=O	2.7	-1	-34	5%	9
CCOC(=O)C1=C(c2ccccc2)Nc2ncnn2C1c1cc(OC)ccc1OC (stereo unspecified)	-2.1	-7	32	1%	12
CCOc1cc2ccccc2cc1C(=O)Nc1ccccn1	0.0	2	.	.	.
O=C(O)Cn1cc(C(=O)c2ccccc2F)c2ccccc21	0.5	-1	.	.	.
CCn1c(NC(=O)c2ccco2)c(-c2ccccc2Cl)c(=O)c2ccccc21	0.0	-14	-45	-3%	0
O=S(=O)(NC1CCCCC1Oc1ccccc1)c1ccccc1 (stereo unspecified)	4.8	4	-27	-1%	10
Cc1cc(C)n2nc(C(=O)NCc3ccco3)nc2n1	-1.7	-2	-19	-2%	.
COc1cccc(CNS(=O)(=O)c2cc(CN3C(=O)c4cccnc4C3=O)ccc2OC)c1	0.2	-1	.	.	.
c1ccc(NC2=NCCN2CCC2CCCCC2)cc1	0.1	-3	.	.	.
CC(/C=N/NC(=O)c1ccncc1)=C\c1ccc(C(C)C)cc1	-2.2	98	-24	?	-8
CC(C)(C)c1cc(CCC(=O)N2CCNCC2)c(C(C)(C)C)cc1O	-2.9	-7	-17	-5%	-2
COc1ccc(/C=C/S(=O)(=O)NCc2ccccc2)cc1OC	-1.2	-1	.	24%	19
O=C(NCc1ccccc1Cl)c1cc(C(=O)C2CC2)c[nH]1	-1.2	-13	.	.	.
O=C(NCC1CCCO1)C1CCCN(S(=O)(=O)c2cccc3nsnc23)C1 (stereo unspecified)	1.7	-3	31	-10%	0
CS(=O)(=O)N1CCCC(C(=O)Nc2ccc3c(c2)OCCO3)C1 (stereo unspecified)	-4.9	-4	.	-1%	-3
CCCn1nnnc1NCc1cccc(OC)c1	-1.6	5	.	.	.
COc1cc(/C=c2\sc3nc(-c4ccncc4)nn3c2=O)ccc1OC(C)=O	.	.	-29	.	-1
Cc1cccc(N2CCN(C(=O)c3nn(C)c4c3CS(=O)(=O)c3ccccc3-4)CC2)c1C	-6.6	6	.	.	.
Cc1ccnc(NC(=O)Cn2ccc([N+](=O)[O-])n2)c1	2.2	2	-5	-2%	6
CCN(CC(=O)Nc1ccc(NC(C)=O)cc1)C(=O)C1CC(=O)N(CCc2ccc(OC)c(OC)c2)C1 (stereo unspecified)	-0.3	-5	.	.	.
Cc1cccc2cc(/C=N/Nc3ccc(C(=O)O)cc3)c(Cl)nc12	.	2	.	2%	.
Cc1ccc(CN2CCN(/N=C\c3cccc([N+](=O)[O-])c3)CC2)cc1	1.2	-5	.	0%	5
Cc1ccc(/C=N/Nc2cc(C)nc(N3CCOCC3)n2)cc1	-3.4	0	.	-4%	.
O=C1Nc2ccccc2C(O)(C(=O)N2CCCCC2)N1c1ccccc1 (stereo unspecified)	-6.4	-6	-8	-4%	0	Arbovirus anti repeat=2
Cc1ccc(C)c(OC(=O)CN2C(=O)c3ccccc3C2=O)c1	-2.4	5	.	.	.

Going on with the list:
SMILES	RecA splice inh	Mtb betalactam	YopH PTP inh	Mtb H37Rv	Arbovirus anti	others
O=C(NC(=S)N1CCOCC1)c1ccc([N+](=O)[O-])cc1	1.5	.	-23	6%	-2
O=C1C=C(NCc2ccccc2)C2(CCCCC2)O1	1.1	-6	-49	-4%	-1
Cc1sc2ncnc(NCCN3CCOCC3)c2c1C	1.7	4	-9	4%	14
Cc1ccc(-c2cc(C(=O)N3CCCC3)c3ccccc3n2)s1	-2.1	0	.	.	.
C=CCC(=O)NC1CC(C)(C)Cc2c1cnn2-c1ccc(C)cc1 (stereo unspecified)	1.4	7	.	.	.
CCc1ccc(C(=O)CN2C(=O)C(C)N(c3ccc(C)cc3)C2=O)cc1 (stereo unspecified)	0.2	-4	-25	-2%	-2
CCOC(=O)c1c(CC(C)C)csc1NC(=O)c1ccccc1C(=O)O	-3.6	0	.	99%	.
CCn1c(C)nnc1SCC(=O)Nc1ccc(N2CCOCC2)cc1	0.0	5	.	.	.

A portion of the library (hit frequency here may not be typical).
